S aureus helic = S. aureus DNA helicase inhibition. purified S. aureus helicase, fluorescence unwinding assay; about half of the hits fall short of the stated cut. hit rate 0.05% among 120,000. inhibition, %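 (tested at about 80 µM)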;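 active = both duplicates at 50% or more, or one of them with a favoured structure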;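 also: 0% = mean of negative control wells and 100% = mean of positive control wells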
MgrA DNA FP = S. aureus MgrA-DNA binding modulation. hit rate 0.13% among 84,000. fluorescence polarization. inhibition, %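 (about 10 µg/mL by stock and volumes)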;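 active = above 50% in either of two replicates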;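 also: 0% = protein plus DNA without compound and 100% = DNA alone without protein; higher means less MgrA bound to DNA so lower polarization; one replicate is shown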
* = called active by the depositor; · = no result given. A portion of the library; count on the stated rates, not on these rows.

S aureus helic | MgrA DNA FP | compound
-24 | · | CC1CCCC(C)N1Cc1c(O)ccc2c(-c3ccccc3)cc(=O)oc12 (configuration not stated)
-3 | · | Cc1cc(NC(=O)COC(=O)c2cc(-c3ccco3)nc3ccccc23)n(-c2ccccc2)n1
-3 | 1.5 | CC(C)(CN1CCCCCC1)NS(=O)(=O)c1ccccc1
-16 | · | O/N=C/c1ccc2cccc(O)c2n1
-15 | · | COc1cc(NC(=S)N(C)CCC#N)c(OC)cc1Cl
-62 | · | Nc1cccnc1Nc1ccccc1
4 | -9.1 | COC(=O)c1cc(-c2cccc(OC)c2)c2c(=O)[nH]c(=O)n(C)c2n1
-17 | · | CC1=C(c2cccc(Cl)c2)S(=O)(=O)NC1=O
· | -3.2 | CCOC(=O)c1cc(-c2c(Cl)cccc2Cl)no1
-13 | · | COc1ccc(CCNC(=O)Cn2nnc(C(=O)Nc3cccc(C)c3C)c2N)cc1OC
5 | · | CC(=O)OC1=CC=CNC1=C(C#N)C#N
-1 | · | Cc1oc2cc3oc(=O)c(CC(=O)NCCc4ccccc4)c(C)c3cc2c1C
5 | · | Cc1cc(C)c(C(=O)Nc2cccc3c(=O)[nH][nH]c(=O)c23)c(C)c1
4 | -0.8 | COCCNC(=O)C1CCCN(S(=O)(=O)c2ccc(OC)c(OC)c2)C1 (configuration not stated)
28 | · | O=C(CNS(=O)(=O)c1cccs1)NC1CCCc2ccccc21 (configuration not stated)
6 | -1.1 | Nc1c(C(=O)Nc2ccc3ccccc3c2)sc2nc3c(cc12)CCC3
2 | · | Cc1[nH]c2ccc(C(=O)NC3CC3)cc2c1C
-19 | -1.3 | CCc1cccc(CC)c1NC(=O)COC(=O)c1ccncc1
11 | 0.0 | COc1ccc(NC(=C(C#N)C#N)C(F)(F)C(F)(F)F)cc1
-10 | 7.2 | Nc1nc(-c2ccccc2)cc(-c2ccccc2)n1

Of the compounds above, 5 contain an aryl methoxy group:
S aureus helic | MgrA DNA FP | compound
-15 | · | COc1cc(NC(=S)N(C)CCC#N)c(OC)cc1Cl
4 | -9.1 | COC(=O)c1cc(-c2cccc(OC)c2)c2c(=O)[nH]c(=O)n(C)c2n1
-13 | · | COc1ccc(CCNC(=O)Cn2nnc(C(=O)Nc3cccc(C)c3C)c2N)cc1OC
4 | -0.8 | COCCNC(=O)C1CCCN(S(=O)(=O)c2ccc(OC)c(OC)c2)C1 (configuration not stated)
11 | 0.0 | COc1ccc(NC(=C(C#N)C#N)C(F)(F)C(F)(F)F)cc1

The list goes on.
S aureus helic | MgrA DNA FP | compound
1 | 0.9 | Cc1cc(C)c(S(=O)(=O)NCC(=O)NC2CC2)c(C)c1
-1 | 1.0 | COc1ccc(Cc2c(O)nc(N)[nH]c2=O)cc1
-3 | 1.2 | C(/C=C/c1ccc2c(c1)OCO2)=Nc1ccc(N2CCOCC2)cc1
3 | -3.2 | CC(=O)Nc1ccc(C(=O)CSc2nnc3scc(-c4ccccc4)n23)cc1
5 | 10 | CCOC(=O)c1c(NC(=O)CN2C(=O)CCSc3ccccc32)sc2c1CCCC2
28 | · | C/C(=N\NC(=S)NCc1ccccc1)c1ccc(S(=O)(=O)NCc2ccco2)cc1
24 | · | CCCNC(=O)c1cc2c(Cl)ccc3c2n1CCO3
-10 | · | COc1ccc(CCN2C(=O)CSC2c2ccc3cccc(O)c3n2)cc1OC (configuration not stated)
· | -0.6 | c1ccc(-c2ccc3ccccc3n2)cc1
-9 | · | COc1ccccc1CN(C)C(=O)c1cccc(S(=O)(=O)N2CCCC2)c1
-6 | · | NS(=O)(=O)c1ccc(CNC(=O)CNC(=O)Cc2ccccc2)cc1
10 | -2.8 | CC1(C)[C@H]2CCC1(CS(N)(=O)=O)C(=O)C2
16 | 2.7 | O=S(=O)(c1ccccc1)N1CCN(S(=O)(=O)c2ccc3ccccc3c2)CC1
-3 | · | C=CCNc1nc(C(=O)OCC(=O)N2CCN(c3ccc(OC)cc3)CC2)cs1
3 | -2.0 | Cn1c(C(=O)N2CCN(c3ccccn3)CC2)cc2c(=O)n(C)c3ccccc3c21
11 | · | CCCOC(=O)CNc1n[nH]c(=O)[nH]c1=O
7 | -2.2 | O=C(CCC1CCCC1)N1CCN(C(=O)COc2ccccc2)CC1
16 | -1.0 | Cc1cc(C(=O)OCC(=O)Nc2sc3c(c2C#N)CCCC3)c2ccccc2n1
-6 | · | COC(=O)c1cc(NC(=O)COC(=O)C2CCC2)cc(C(=O)OC)c1
-5 | · | Cc1ccc2c(c1)-c1nc3nc(N)[nH]c(=O)c3cc1C(O)O2 (configuration not stated)

Record cards, from the list above.
Profile of `COC(=O)c1cc(NC(=O)COC(=O)C2CCC2)cc(C(=O)OC)c1` = S aureus helic: -6; MgrA DNA FP: ·
Profile of `c1ccc(-c2ccc3ccccc3n2)cc1` = S aureus helic: ·; MgrA DNA FP: -0.6
Profile of `C=CCNc1nc(C(=O)OCC(=O)N2CCN(c3ccc(OC)cc3)CC2)cs1` = S aureus helic: -3; MgrA DNA FP: ·

(further entries)
S aureus helic | MgrA DNA FP | compound
· | 0.9 | CSc1nc2c(Cl)cccc2c2c1c(=O)[nH]n2C
· | 1.1 | COc1ccc(Nc2nc(Cl)nc(NC3CCCC3)n2)cc1
· | -3.2 | O=C(O)CSCc1nc(-c2ccc(Cl)cc2)no1
· | -6.4 | COc1ccccc1CNC(=S)NCCO
5 | · | CCc1ccc(C(=O)c2cnc3cc4c(cc3c2N2CCCC2)OCCO4)cc1
-6 | 0.2 | COc1ccc(N2C3=[N+](CC2(C)O)c2ccccc2CC3)cc1 (configuration not stated)
23 | 20 | c1ccc(CSc2nnc(Cc3ccccc3)o2)cc1
10 | · | Cc1nc(SCC(=O)N(Cc2ccco2)CC(F)(F)F)c2ccccc2n1
5 | -2.0 | N#Cc1cccc(N=Cc2ccc3c(c2)OCO3)c1
7 | -0.3 | COc1ccc(-c2nn(-c3ccccc3)cc2C(=O)Oc2ccccc2)cc1OC
-6 | -0.9 | COc1cc(OC)c(C=Nc2ccccc2)cc1Br
9 | 0.9 | CCOC(=O)C(C(=O)Nc1cccc(C)n1)C1CCCCC1 (configuration not stated)
-17 | · | O=C(c1ccncc1)N(Cc1ccc2c(c1)OCO2)C1CCCC1
· | -3.6 | COC(=O)c1sc2ccccc2c1OS(=O)(=O)c1ccc(OC)c(OC)c1
0 | -2.2 | O=C(O)c1cnc(N2CCCCC2)nc1
4 | 2.2 | O=C1c2ccc(-c3nc4ccccc4c(=O)o3)cc2C(=O)N1c1ccc2c(c1)OCO2
-10 | · | O=c1[nH]c(Nc2nc3ccccc3o2)nc(O)c1Cc1ccccc1
-17 | · | COc1cc(C(CC(=O)NCCN2CCOCC2)N2Cc3ccccc3C2=O)cc(OC)c1OC (configuration not stated)
-5 | · | CCOc1cc(/C=C2\SC(=O)N(C)C2=O)cc(Cl)c1OCC
-14 | · | CC(C)C(=O)n1nc(-c2cccnc2)nc1NCc1ccccc1
15 | · | COc1cccc(-n2ccnc2SCC(=O)Nc2ccc(N3CCN(C)CC3)cc2)c1
· | -1.5 | CC1=C(C(=O)OCCc2ccccc2)C(c2cc3c(cc2Br)OCO3)NC(=O)N1C (configuration not stated)
7 | 1.2 | Cc1cc(C)n(NC2=CC(=O)CC(C)(C)C2)c(=O)c1C#N
18 | · | COc1ccc(OC(=O)C2CCN(S(=O)(=O)c3cccc4nsnc34)CC2)cc1
2 | 3.0 | Cc1cc(=S)[nH]c2ccccc12
· | -2.0 | CC1Sc2ccc(C(F)(F)F)cc2NC1=O (configuration not stated)
-23 | · | O=c1c2c3c(sc2nnn1Cc1ccccc1)CCCC3
· | -1.3 | O=C(Nc1cc(F)c(Br)cc1F)c1ccc(Cl)cc1
21 | · | Cc1sc(NC(=O)C2CC2)c(C#N)c1C
-1 | 0.4 | C[N+](C)(C)[C@H]1C(O)O[C@@H]2C(O)CO[C@@H]21 (some centres not stated)
-13 | -2.8 | CC1CC1C(=O)OCC(=O)NC(c1ccccc1)c1ccccc1 (configuration not stated)
-4 | · | COc1ccc(-n2c(SCC(=O)NC3CC3)nc3ccccc32)cc1
13 | 0.5 | CCC(=O)N1CCCc2cc(S(=O)(=O)N3CCN(C4CCCCC4)CC3)ccc21
4 | 2.5 | CCCc1nnc2c3c4c(sc3ncn12)CCCC4
10 | · | O=C(CSc1ncc(-c2ccccc2)n1-c1ccccc1)NCCN1C(=O)CSC1=O
4 | 1.2 | Cc1ccc(N(CC(=O)NC(c2ccccc2)c2ccccc2)S(=O)(=O)N2CCCC2)cc1
· | -3.0 | Cc1nc2cc(Cl)c(Cl)cc2nc1C
-5 | · | O=C(Oc1cccc(Br)c1)c1cccnc1
-4 | · | CSc1nc(C)nc(N/C=C2\C(=O)c3ccccc3N(C)S2(=O)=O)n1
14 | · | O=C(CSc1ccccc1)Nc1nnc(-c2ccccc2)o1
9 | 0.3 | CCn1c(=O)c(C2=NS(=O)(=O)c3ccccc3N2)c(O)c2ccccc21
3 | -4.0 | CCn1c(N2CCCC(C(=O)Nc3ncn[nH]3)C2)nc2ccccc21 (configuration not stated)
5 | 2.0 | Cc1ccccc1NC(=O)c1sc2nc[nH]c(=O)c2c1C
3 | 3.6 | CCCCn1c(C)nc2ccccc21
26 | · | O=C(COC(=O)c1cc2c(s1)CCC2)c1ccc(Br)s1
· | -1.4 | N#CCc1ccc(C(=O)c2ccc(Cl)cc2Cl)s1
· | -1.2 | CCOC(=O)CC(C)Nc1cc(NC(C)=O)ccc1OC (configuration not stated)
-10 | · | Nc1ccccc1-c1nc2cc3ccccc3cc2[nH]c1=O
1 | 2.5 | Cc1ccc(NCc2nnc(SCC(=O)c3ccc(C)cc3)n2C)cc1
-4 | · | CCCCCCn1nc(C(=O)OCc2nnc(-c3ccccc3)o2)c2ccccc2c1=O
· | -0.4 | Cc1c(C(=O)/C=C/N(C)C)sc(=S)n1CCc1ccc(Cl)cc1
9 | -4.7 | Cc1nonc1C(=O)NCC(=O)O
12 | -1.1 | O=C(CCn1cnc2ccccc2c1=O)Nc1ccccn1
6 | · | CCC(=O)Nc1ccc(Oc2ccc(C)cc2)cc1
11 | · | CSc1nnc(CCCN)n1C1CCCC1
5 | · | N=C(N)N1CCN(c2ccccc2)CC1
8 | · | COc1cc(NC(=O)C2CCCC2)c(C(=O)OCC(=O)N2CC(C)CC(C)C2)cc1OC (configuration not stated)
-3 | · | Cc1ccc(CNC(=O)C2(c3ccc(Cl)cc3)CCC2)n1C
11 | · | O=C(COc1coc(CN2CCc3ccccc32)cc1=O)Nc1ccc2c(c1)OCCO2
15 | -1.0 | CCn1c2ccccc2c2cc(CN3CCN(C(=O)c4c(OC)cccc4OC)CC3)ccc21

Additional results follow:
S aureus helic | MgrA DNA FP | compound
6 | · | O=C(c1nnc(-c2ccc(Cl)cc2)o1)C1CCCC1
15 | · | Cc1cc2cc(CNC(=O)COc3ccccc3)ccc2[nH]1
-15 | · | CC1CN(C(=O)c2cc3c(=O)n4ccccc4nc3s2)CC(C)O1 (configuration not stated)
-1 | · | CC1(C)C2CCC1(CS(=O)(=O)N1CCc3ccccc31)C(=O)C2 (configuration not stated)
· | -0.8 | CN(C)C(=O)Nc1cnccc1C(F)(F)F
9 | 0.5 | O=C(O)CC1NC(=S)N(Cc2ccccc2)C1=O (configuration not stated)
-1 | -0.8 | CC(Sc1nnc(-c2ccc(Cl)cc2)n1C)c1nc2ccccc2c(=O)[nH]1 (configuration not stated)
-27 | · | COc1cc(CO)ccc1OCc1ccc(C(=O)O)cc1
20 | 0.7 | O=C(COc1cccc2ccccc12)N1CCN(c2ccccn2)CC1
10 | · | Cc1ccc(F)cc1S(=O)(=O)NC1CCCCNC1=O (configuration not stated)
7 | -0.5 | Cc1ccc(C(=O)N2CCC(C)CC2)cc1
· | -4.7 | O=C(O)c1ccccc1Oc1cccc([N+](=O)[O-])c1
0 | -3.5 | CC(C)C(=O)Nc1ccc2c(c1)OCCO2
13 | -3.2 | COC(=O)c1ccc2nc(NC(=O)CN3C(=O)CCC3=O)sc2c1
-5 | · | O=C(c1ccc(=O)[nH]c1)N1CCCSC1=Nc1cccc(C(F)(F)F)c1
21 | · | Cc1nn(CC(C)C)c(Cl)c1/C=C/C(=O)O
9 | -0.1 | CC(CCc1ccccc1)NC(=O)CCc1nnc2ccc(N3CCOCC3)nn12 (configuration not stated)
21 | 37 | CCOc1ccc2nc(NCCNC(=O)COc3ccccc3)c(C#N)cc2c1
1 | -3.8 | Cc1ccc(C)c(OC(=O)NC(C)(C(F)(F)F)C(F)(F)F)c1C
-19 | · | O=C(CC1(O)C(=O)Nc2ccccc21)c1ccccc1 (configuration not stated)
7 | · | COc1ccc(-c2noc(CCC(=O)NC3CCN(Cc4ccccc4)CC3)n2)cc1
5 | 2.7 | CC(=O)N[N+]1=C(N)c2ccccc2C1
-19 | · | O=C1CC(c2ccsc2)c2c(n[nH]c2-c2ccccc2)N1 (configuration not stated)
9 | 4.6 | CCc1ccc(NC(=O)c2cccc3c2C(=O)N(C2CCCCC2)C3)cc1
· | 3.3 | N#Cc1c(Cl)cccc1N1CCCC1
-5 | 1.1 | Nc1nonc1OCCNc1ccccc1
· | 4.9 | Cc1ccc2c(nc3s/c(=C/c4cc5c(cc4Br)OCO5)c(=O)n32)c1C
· | -1.4 | N#Cc1ccc(NC(=O)c2ccccc2C(=O)O)cc1
4 | 3.0 | CCSc1nc2ccccc2c(=O)n1CCOC
· | 1.0 | Cc1ccc(N=Nc2c(C)[nH]n(C(C)(C)C)c2=O)cc1
3 | 0.2 | CCC(=O)c1ccc2cc(OC)ccc2c1
-14 | 3.1 | Nc1c(C(=O)CCC(=O)O)oc2ccccc12
12 | -2.8 | CCCN1CCC(NC(=O)Nc2cccc(F)c2)CC1
-20 | · | CCN(CC)S(=O)(=O)c1ccc(C(=O)NCCn2ccc3ccccc32)cc1
14 | 1.1 | CCCn1c(C(C)NC(=O)C(C)(C)C)nc2ccccc21 (configuration not stated)
7 | 3.0 | O=C1CC(c2ccccc2)OC12CCCCC2 (configuration not stated)
· | 0.2 | O=C(ON(C(=O)c1ccc(F)cc1)C1C2CC3CC(C2)CC1C3)c1ccc(F)cc1 (configuration not stated)

Screening results deposited in PubChem BioAssay by ICCB-Longwood Screening Facility, Harvard Medical School.
